# NPYLR7 ag – activates Aedes aegypti NPYLR7 receptor; activation, % at 10 µM; HEK293T NPYLR7/Galpha15, GCaMP6s calcium fluorescence; 270,000 compounds, 0.15% hits; in the data active = activation above about 40%;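 note: 0% = vehicle and 100% = reference agonist at the receptor; some compounds past the cut are filed as inactive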
# NPYLR7 ag max-min – second read-out of NPYLR7 ag, no call of its own (marks repeat the call); activation, %; measured here: Max-Min RFU normalised activation; some inactives read as strong as hits;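 span of the calcium signal over five minutes; 0% = vehicle and 100% = native peptide agonist; compound fluorescence can raise it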
# * marks the source's active call; other numbers are inactive results; & = joins results of further samples.
# The first 2 entries, to show the layout:
# Value order: NPYLR7 ag max-min, NPYLR7 ag
COc1cccc(CC(=O)NC2CCN(C(=O)c3cn(-c4ccccc4)nn3)CC2)c1
→ -10, -9
N#Cc1c(NC(=O)c2cccs2)sc2c1CCCC2
→ -2, 0

# Main list, from the first entry:
# Value order: NPYLR7 ag max-min, NPYLR7 ag
COc1cccc(CC(=O)NC2CCN(C(=O)c3cn(-c4ccccc4)nn3)CC2)c1
→ -10, -9
N#Cc1c(NC(=O)c2cccs2)sc2c1CCCC2
→ -2, 0
Cc1[nH]c(=O)n(C)c(=O)c1CCC(=O)Nc1cc(C(F)(F)F)cc(C(F)(F)F)c1
→ -12, -8
Cn1cc(C(=O)N2CCCCCC2)cc(NC(=O)c2ccccc2C(F)(F)F)c1=O
→ -23, -17
Ic1ncn(COCc2ccccc2)c1I
→ 0, 1
CCCC1=C(C(=O)OCC)C(c2cc(Br)c(O)c(OC)c2)NC(=O)N1 (stereo not given)
→ 7, 0
O=C(c1sccc1S(=O)(=O)N1CCCC1)N1CCCC(c2ccn[nH]2)C1 (stereo not given)
→ 1&0, 3&2
CC(C)c1nccc(CN(Cc2ccco2)C(C)C(C)C)n1 (stereo not given)
→ 18, 27
N#CC1(c2ccccc2)CCN(C(=O)C2CC=CCC2C(=O)NCCc2ccccc2F)CC1 (stereo not given)
→ -17, -12
CCOc1ccccc1NC(=O)C12CCC(=O)N1c1ccccc1C(=O)N2Cc1ccccc1 (stereo not given)
→ -9, -8
CN(Cc1ccco1)C(=O)CC1(c2cccc(C(F)(F)F)c2)CC(=O)N(C2CC2)C1=O (stereo not given)
→ -5, 1
CCN1CCN(C(=O)c2ccc(CSc3nnc(-c4cccc(OC)c4)n3-c3ccccc3OC)cc2)CC1
→ 20, 17
O=C(NCc1cccc(-c2ncc(-c3ccc(F)cc3)[nH]2)c1)c1cccs1
→ 25, 30
Cc1cccc(CO[C@]2(C(=O)NC3CC3)CC(OCc3cccc(Cl)c3)[C@H](O)[C@H](O)C2)c1 (stereo not given in full)
→ 7, -4
Cc1cc(NS(=O)(=O)c2cnc[nH]2)ncc1Br
→ 3, 2
NC(=O)Cc1csc(NC(=O)c2cc(F)ccc2F)n1
→ -13, -15
CCOC(=O)C1=C(COC(=O)Cc2cccs2)NC(=O)NC1C (stereo not given)
→ 1, 1
Cc1cc(OCC(=O)Nc2ncn[nH]2)c(C)cc1Br
→ 4, 13
C=CCn1c(=NC(=O)Cc2ccc(S(C)(=O)=O)cc2)sc2cc(F)cc(F)c21
→ 9, 10
COc1ccc(N2CCN(c3ccc4nncn4n3)CC2)cc1
→ 9, 8

# Next part.
# Value order: NPYLR7 ag max-min, NPYLR7 ag
CCc1cc(NCCCN2CCCC2=O)nc(N2CCOCC2)n1
→ -2, 3
CS(=O)(=O)NC1CCN(Cc2ccc3c(c2)OC(F)(F)O3)CC1
→ 10, 12
CCN(C)c1c(C)nc2c(OCCOc3ccccc3)cccn12
→ -1, 1
CCc1ccc(N2C(=O)CC(C3CCCC=C3N3CCOCC3)C2=O)cc1 (stereo not given)
→ -12, -4
C=C(C)CNc1sc(C(=O)Nc2sc3c(c2C(=O)OC)CCC3)c(N)c1C(N)=O
→ 8, 12
CN1CCN(C(=O)c2c3c(nc4ccccc24)CCN(C(=O)c2cc(F)cc(F)c2)C3)CC1
→ 9, 2
O=C(/C=C/c1ccccc1)c1ccc(O)cc1O
→ 17, 17
CC(C)(C)c1ccc(/C=N\NC(=O)CSc2nnc(-c3ccccc3)n2-c2ccccc2)cc1
→ -10, -4
CCn1ccc(C(=O)N2CCN(c3nc4c(F)cc(F)cc4s3)CC2)n1
→ -3, 0
CNC(=O)c1[nH]nc2c1C(c1nc(-c3ccccc3)cs1)CC(=O)N2 (stereo not given)
→ -7, -5
N#CCCNC(=O)CCc1cc2c(n1-c1ccc(Cl)cc1)-c1ccccc1OC2
→ 0, 1
N#Cc1cccnc1N1CCN(c2cncc(-c3ccc(F)cc3)n2)CC1
→ -4, -3
O=C(NCc1cccnc1)C1COC2(CCN(C(=O)c3ccco3)CC2)N1C(=O)c1ccc(F)cc1 (stereo not given)
→ 22, 15
O=C(Nc1ccccc1)C1CCN(C(=O)CN2CCCCC2)CC1
→ -9, -6
N#Cc1ccc(C(=O)Nc2cccc3c2C(=O)NC3=O)cc1
→ -4, -3
COc1cc(C=C2C(=O)NC(=S)NC2=O)ccc1Oc1ccc([N+](=O)[O-])cn1
→ -3, -1
CCOC(=O)c1cc(Cc2ccccc2)sc1NC(=O)c1ccc(Cl)cc1
→ 2, 14
CCOc1ccccc1NC(=O)CSc1nc2c([nH]c3ccccc32)c(=O)n1C
→ 17, 3
Cc1cc(C)cc(C(=O)C=C2NC(=O)CS2)c1
→ 5, 5
O=C(NCC1Cc2cc(Oc3ccccc3)ccc2O1)c1ccc2ccccc2c1 (stereo not given)
→ -4, 0

# Part of the list above in a different format:
> O=C(NCc1cccnc1)C1COC2(CCN(C(=O)c3ccco3)CC2)N1C(=O)c1ccc(F)cc1 (stereo not given)
- NPYLR7 ag max-min = 22
- NPYLR7 ag = 15

> COc1cc(C=C2C(=O)NC(=S)NC2=O)ccc1Oc1ccc([N+](=O)[O-])cn1
- NPYLR7 ag max-min = -3
- NPYLR7 ag = -1

> CCn1ccc(C(=O)N2CCN(c3nc4c(F)cc(F)cc4s3)CC2)n1
- NPYLR7 ag max-min = -3
- NPYLR7 ag = 0

> CN1CCN(C(=O)c2c3c(nc4ccccc24)CCN(C(=O)c2cc(F)cc(F)c2)C3)CC1
- NPYLR7 ag max-min = 9
- NPYLR7 ag = 2

# Continuation:
# Value order: NPYLR7 ag max-min, NPYLR7 ag
CC1=C(C(=O)OCCOc2ccccc2)C(c2ccccc2I)NC(=O)N1C (stereo not given)
→ -6, 0
COc1ccc(N=c2scc(C)n2CC(=O)NC2CC2)cc1
→ 3, 4
COc1ccc(C(=O)NC2CCC(NC(=O)[C@H]3CCCN3S(=O)(=O)c3ccc(Cl)cc3)CC2)cc1 (stereo not given in full)
→ -12, -18
COc1cc(Cn2ccnc2)c(OC)cc1Cn1ccnc1
→ 6, 13
Cc1cc(C(=O)NCc2ccc3c(c2)OCO3)n2nc(-c3ccccc3)cc2n1
→ 15, 2
COc1ccc(-c2cc(Nc3ccc(NS(=O)(=O)c4ccc(C)cc4)cc3)ncn2)cc1
→ 1, -6
COc1ccc2c(C)c(CCC(=O)Nc3ccccn3)c(=O)oc2c1
→ 1, 3
CC1(C(=O)NCc2cccnc2)CCN1C(=O)Cc1cc(F)ccc1F (stereo not given)
→ 5, 8
N#C/C(=N\Nc1ccccc1[N+](=O)[O-])C(=O)c1ccc(Cl)cc1
→ 13, 10
CN(C)c1cccc(C(=O)NCC2COc3ccccc3C2)c1 (stereo not given)
→ 0, 4
CCCCCCNCc1cccc(Br)c1
→ 12, 4
CCCN(Cc1cccc(Cl)c1)C(=O)CCn1cnc2ccccc2c1=O
→ -9, -6
Cc1ccc(NC(=O)CSc2ccc(-c3ccc(-n4ccnc4)cc3)nn2)cc1
→ -6, -6
Nc1c(Sc2ccccc2)c(=O)[nH]c(=O)n1Cc1ccccc1
→ -1, -1
O=C(Oc1ccc(Cl)c(Cl)c1)C1=CC=CN2CCS(=O)(=O)N=C12
→ -6, -2
O=C(c1cc(CN2CCOCC2)on1)N1CCNCC1c1ccccc1 (stereo not given)
→ -7, 0
O=C(c1cnn(-c2cccc(F)c2)c1-c1ccccc1)N1CCOCC1
→ 25, 19
CCN(C)c1cc(Oc2ccc(Cl)c(C)c2)ncn1
→ -6, -9
COc1ccc(C(=O)NNC(=O)COCC(=O)NNC(=O)c2ccc(OC)cc2)cc1
→ -11, -4
COc1cc(F)ccc1-c1c(-c2ccccc2)ncn1CCCN1CCCC1=O
→ 6, 11

# Single entries from the list:
# In NPYLR7 ag max-min, `CCCC1=C(C(=O)OCC)C(c2cc(Br)c(O)c(OC)c2)NC(=O)N1` (stereo not given) has the entry 7
# In NPYLR7 ag, `CCCCCCNCc1cccc(Br)c1` has the entry 4

# The results go on:
# Value order: NPYLR7 ag max-min, NPYLR7 ag
Cc1cc(-n2c(C)cc(C3=NNC(=NCCCN4CCOCC4)SC3)c2C)no1
→ -4, -2
Cc1[nH]n2c(=O)c3c(nc2c1-c1ccccc1)CCC3
→ 3&2, 4&1
COCCCN1C(=O)CC(CC(=O)N(C)Cc2n[nH]c3c2CCCCC3)(c2ccccc2C)C1=O (stereo not given)
→ 7, 17
CC(C)(C)C(C#N)NS(=O)(=O)c1cc(F)cc(F)c1 (stereo not given)
→ 0, 2
COC(=O)c1ccc(C(=O)NC(C)(CC(C)C)C(N)=O)nc1 (stereo not given)
→ 4, 7
Cc1ccsc1CN(Cc1ccco1)Cc1nc(C(=O)O)co1
→ 21, 8
COc1ccc(SCc2ccc(C(=O)N3C4CCC3CC(Oc3cccc(C(F)(F)F)c3)C4)cc2)cc1OC (stereo not given)
→ -16, -11
COc1ccc(NC(=O)C2CCCN2C(=O)c2cn(C)c3ccccc23)cc1 (stereo not given)
→ 12, 13
COc1ccc(S(=O)(=O)N(C)C)cc1NC(=O)c1c(-n2c(C)ccc2C)sc(C)c1C
→ 12, 9
COc1ccc(CCNC(=O)CC(c2ccc(F)cc2)c2cn(Cc3ccccc3)c3ccc([N+](=O)[O-])cc23)cc1OC (stereo not given)
→ 8, 0
CN1CCCC2(CC1)CCN(C(=O)c1cc(-c3cccn3C)n[nH]1)CC2
→ -5, -4
O[C@@H]1CN(Cc2cccc3cccnc23)CC[C@H]1c1ccc(F)cc1
→ -3, -1
Cn1nnnc1SCC(=O)Nc1ccc2oc3ccccc3c2c1
→ -5, -3
Cc1ccc(SC2(C(=O)N(C)Cc3cnccn3)CCCC2)cc1
→ -3, -2
COc1cc2c(cc1-c1nccn1CC1CCS(=O)(=O)C1)CCC2 (stereo not given)
→ -1, 0
CC1C2CC(C(S(=O)(=O)N3CCOCC3)C2=O)C1(C)C (stereo not given)
→ -5, -1
COc1ccccc1Oc1nc(N2CCCC2)nc2c1CNCC2
→ 10, 23
C=CCN(Cc1nccn1Cc1ccccc1F)C(=O)NC(C)(C)C
→ 14, 20
CC(=O)N1N=C(c2ccc(C(C)(C)C)cc2)OC1C(=O)NCc1ccccc1C(F)(F)F (stereo not given)
→ 9, 13
C=CCNC(=O)c1c(N)n(/N=C\c2ccccc2OC)c2nc3ccccc3nc12
→ 1, 1

# Quoted at random: four entries already listed, in no set order.
# Value order: NPYLR7 ag max-min, NPYLR7 ag
COc1ccc(CCNC(=O)CC(c2ccc(F)cc2)c2cn(Cc3ccccc3)c3ccc([N+](=O)[O-])cc23)cc1OC (stereo not given)
→ 8, 0
CC(C)(C)C(C#N)NS(=O)(=O)c1cc(F)cc(F)c1 (stereo not given)
→ 0, 2
COC(=O)c1ccc(C(=O)NC(C)(CC(C)C)C(N)=O)nc1 (stereo not given)
→ 4, 7
COc1ccccc1Oc1nc(N2CCCC2)nc2c1CNCC2
→ 10, 23

# New compounds follow
# Value order: NPYLR7 ag max-min, NPYLR7 ag
O=S(=O)(NC1=NCCC1)c1ccc2c(c1)OCCOCCOCCOCCO2
→ 9, 7
COc1ccccc1-c1cc(CNC(=O)c2c(C)nc3sccn23)on1
→ -1, 7
CCn1nnc2c(=O)n(CC(=O)N3CCOCC3)cnc21
→ 37, 0
CCC1(C)NC(=O)N(N=Cc2ccc(N3CCOCC3)s2)C1=O (stereo not given)
→ 1, 1
CC(=O)N1CCN(C(=O)CCNC(=O)c2csc(Nc3cccc(C(F)(F)F)c3)n2)CC1
→ 5, 7
CCOC(=O)C1=C(Cn2cnc3sc(C)c(C)c3c2=O)NC(=O)NC1CC (stereo not given)
→ -4, 0
CCC(C)c1csc(N(C)S(=O)(=O)c2cccc(F)c2F)n1 (stereo not given)
→ 3, 5
c1nc(Nc2ccc3c(c2)OCO3)c2nc3n(c2n1)CCCCC3
→ -3, 1
Cc1cc(C(=O)CN2C(=O)NC3(CCCc4sccc43)C2=O)c(C)n1C1CC1 (stereo not given)
→ -7, -3
CCN(C(=O)Cn1nc(C(=O)N2CCOCC2)cc1-c1cccs1)c1ccccc1C
→ -12, -10
COC(=O)[C@@H](NC(=O)c1cc([N+](=O)[O-])cc([N+](=O)[O-])c1)C(C)C
→ -1, 2
O=C(CSc1ncnc2c1nnn2Cc1ccccc1F)N1CCCCC1
→ 16, 16
Cc1cc(C)c2c(n1)nn1c(Nc3ccccc3)cc(C)nc21
→ 22, 0

# Screening results from PubChem.

# These rows are one share of the data; the hit share may differ from the screen's.
